Screening data from PubChem BioAssay.
NTR1 ag = agonists of NTR1, primary screen, imaging, U2OS cells, beta-arrestin-GFP, high content (AID 493036) | Neurotensin receptor type 1 (Homo sapiens), P30989 | NTR1-U2OS beta-arrestin-GFP spot imaging, agonist mode | activation, % at 20 µM | 330,000 compounds, 0.17% hits;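 active means activation at or above 40% of the spot to cytoplasm intensity ratio, with at least 20 cells analyzed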;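 further: 0% = DMSO without peptide and 100% = 100 nM NTR1 peptide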
Target sequence (P30989 whole entry, looked up): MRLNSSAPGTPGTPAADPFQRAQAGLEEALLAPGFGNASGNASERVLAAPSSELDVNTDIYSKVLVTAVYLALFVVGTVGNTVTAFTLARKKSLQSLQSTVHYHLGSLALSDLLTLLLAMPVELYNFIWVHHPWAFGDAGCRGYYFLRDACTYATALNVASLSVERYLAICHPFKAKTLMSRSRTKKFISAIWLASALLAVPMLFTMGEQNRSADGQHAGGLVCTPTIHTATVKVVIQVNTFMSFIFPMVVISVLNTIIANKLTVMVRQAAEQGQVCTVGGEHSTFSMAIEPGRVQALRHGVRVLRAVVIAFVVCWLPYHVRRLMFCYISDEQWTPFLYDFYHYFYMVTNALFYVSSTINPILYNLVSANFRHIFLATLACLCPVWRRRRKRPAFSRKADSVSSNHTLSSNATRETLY
KOR beta-arrestin-1 = KOR agonists, beta-arrestin recruitment, primary screen, cell-based, luminescence, uHTS (AID 1777); KOR beta-arrestin recruitment, luminescence; higher % means a stronger effect; 280,000 compounds, 0.02% hits; Kappa-type opioid receptor (Homo sapiens); activation, % at 10 µM; hits with a dose series show EC50 in µM; in the data active means activation above about 50%, passing the limit was not always enough; further: a part of the inactive calls stands beside numbers as strong as those of hits
GPR55 beta-arrestin = GPR55 agonists via beta-arrestin recruitment, primary screen, imaging, U2OS cells, beta-arrestin-GFP redistribution (AID 1961); G-protein coupled receptor 55 (Homo sapiens); U2OS GPR55 beta-arrestin-GFP redistribution imaging; higher % means a stronger effect; one-dose activation, % at 10 µM; EC50 in µM for titrated hits; 290,000 compounds, 0.048% hits;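 active means activation above 40% with more than 50 cells counted in the well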;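 further: U2OS osteosarcoma cells stably expressing GPR55 and beta-arrestin-GFP; plate controls were DMSO negative control for no effect and LPI positive control for full effect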
CSM14.1 death rescue = rescue of cells from ER stress-induced death, primary screen, 384-well, CSM14.1, thapsigargin, ATP luminescence (AID 1222) | one-dose cellular ATP content (survival), % at 20 µM; EC50 in µM for titrated hits | 190,000 tested, under 10 active | CSM14.1 thapsigargin-induced death rescue, ATP luminescence; higher % means a stronger effect;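 active means EC50 below 50 µM in the dose-response confirmation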;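 further: death triggered by thapsigargin at about 15 µM added after 2 h compound pretreatment; cell ATP read after overnight thapsigargin exposure of roughly 18 to 22 hours; normalized against plate controls of thapsigargin alone and 5% DMSO vehicle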
KOR beta-arrestin-2 = KOR antagonists, beta-arrestin recruitment, cell-based, luminescence, uHTS (AID 1778); Kappa-type opioid receptor (Homo sapiens); KOR beta-arrestin recruitment, luminescence, antagonist mode; higher % means a stronger effect; inhibition, % at 10 µM, or IC50 in µM where a hit was titrated; 290,000 compounds, 0.091% hits; in the data active means inhibition above about 50%; further: strong numbers were not always called active
TNAP activation fold = human TNAP enzyme activators, primary screen, biochemical, luminescent, no phosphate acceptor, uHTS (AID 1001) | Alkaline phosphatase, tissue-nonspecific isozyme (Homo sapiens) | purified TNAP, luminescent activation assay, no phosphate acceptor; higher activation fold means a stronger effect | 200,000 compounds, 0.03% hits | one-dose activation fold at 20 µM; EC50 in µM for titrated hits; in the data active means activation fold from about 3, or a potency from the dose series; inactive means the rest, 99 in 100 with activation fold below about 1.6; further: many of its hits are not listed in these tables
Yfh1-depleted yeast = enhancers of respiration in Yfh1-depleted yeast, dose response, Friedreich's ataxia, plus single-dose screen (AID 1465); S. cerevisiae Yfh1-off respiration, WST-1 reduction, 72 h; higher fold induction means a stronger effect; fold induction at 50 µM; hits with a dose series show EC50 in µM; 220,000 compounds, 0.074% hits;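 active means fold induction of absorbance versus untreated yeast above a set limit, then at least 30% activation at any dose in follow-up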;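 further: activators that raise dye reduction in frataxin-depleted yeast; strong numbers were not always called active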
NTR1 ag cell count 20 µM = recorded beside NTR1 ag, whose call it bears; cell count; measured here: cell count, cytotoxicity flag
Active calls of the source: *; i = inactive; x = no result given; [ ] = remark or other dose. A portion of the library; the hit share may differ from the screen's.

The first 12 compounds as a preview:
Each structure is followed by: NTR1 ag, NTR1 ag cell count 20 µM, KOR beta-arrestin-1, GPR55 beta-arrestin, CSM14.1 death rescue, KOR beta-arrestin-2, TNAP activation fold, Yfh1-depleted yeast
CC(C)(C)NC(=O)C(c1ccccn1)N(C(=O)C1CSC(=O)C1)c1ccc(F)cc1 (centres undefined)
  1.1, 77, 2.6%, -0.1%, -0.9%, -8%, 1.1, i
CCCCN(CC)S(=O)(=O)c1ccc(C(=O)Nc2nnc(-c3ccccc3Cl)o2)cc1
  -1.5, 53, 1.6%, 0.3%, 0.9%, -23%, 1.3, i
CCCc1cc(=O)n2[nH]cc(-c3ccc(Cl)cc3)c2n1
  4.4, 67, 0.2%, -0.2%, x, -22%, x, x
CC(=O)c1c(C)[nH]c(C(=O)OCC(=O)Nc2ccc(C)cc2[N+](=O)[O-])c1C
  -0.1, 100, 3.0%, 3.2%, -1.5%, 4%, 1.2, i
CC(C)(C)c1ccc(-c2nnc3sc(-c4ccccn4)nn23)cc1
  18, 61, 18%, -0.1%, -1.1%, -40%, 1.1, i
Cc1cccnc1Nc1nc(-c2ccccn2)cs1
  6.0, 32, -3.5%, 0.0%, -0.8%, 2.9µM*, 1.2, i
O=C(Cc1ccc(Cl)cc1)c1c[nH]c(C(=O)NCc2cccnc2)c1
  -1.0, 60, -7.0%, -0.3%, -0.4%, 9%, 1, i
O=[N+]([O-])c1cccc(S(=O)(=O)Nc2nc3ccccc3nc2Nc2cccc(S(=O)(=O)N3CCCCC3)c2)c1
  x, x, 13%, 1.3%, -1.1%, -27%, 1.1, i
O=C(Nc1nc2ccc([N+](=O)[O-])cc2s1)c1ccc(S(=O)(=O)N2CCCc3ccccc32)cc1
  4.4, 62, 2.2%, -0.1%, -1.4%, -10%[20 µM], 1.1, i
Cc1ccc(Sc2c(C=O)c3ccccc3n2C)cc1
  2.4, 45, -2.0%, 0.6%, 1.1%, -9%, 1, i
Cc1sc(NC(=O)C2CCCCC2C(=O)O)c(C(N)=O)c1-c1ccc(C(C)C)cc1 (centres undefined)
  0.4, 66, -1.5%, 0.3%, -1.6%, -10%, 1, i
CC1CC(C)CN(C(=O)/C=C/c2ccc([N+](=O)[O-])s2)C1 (centres undefined)
  x, x, 0.5%, -0.3%, x, -2%, 1, i

The list itself (from the top)
Each structure is followed by: NTR1 ag, NTR1 ag cell count 20 µM, KOR beta-arrestin-1, GPR55 beta-arrestin, CSM14.1 death rescue, KOR beta-arrestin-2, TNAP activation fold, Yfh1-depleted yeast
CC(C)(C)NC(=O)C(c1ccccn1)N(C(=O)C1CSC(=O)C1)c1ccc(F)cc1 (centres undefined)
  1.1, 77, 2.6%, -0.1%, -0.9%, -8%, 1.1, i
CCCCN(CC)S(=O)(=O)c1ccc(C(=O)Nc2nnc(-c3ccccc3Cl)o2)cc1
  -1.5, 53, 1.6%, 0.3%, 0.9%, -23%, 1.3, i
CCCc1cc(=O)n2[nH]cc(-c3ccc(Cl)cc3)c2n1
  4.4, 67, 0.2%, -0.2%, x, -22%, x, x
CC(=O)c1c(C)[nH]c(C(=O)OCC(=O)Nc2ccc(C)cc2[N+](=O)[O-])c1C
  -0.1, 100, 3.0%, 3.2%, -1.5%, 4%, 1.2, i
CC(C)(C)c1ccc(-c2nnc3sc(-c4ccccn4)nn23)cc1
  18, 61, 18%, -0.1%, -1.1%, -40%, 1.1, i
Cc1cccnc1Nc1nc(-c2ccccn2)cs1
  6.0, 32, -3.5%, 0.0%, -0.8%, 2.9µM*, 1.2, i
O=C(Cc1ccc(Cl)cc1)c1c[nH]c(C(=O)NCc2cccnc2)c1
  -1.0, 60, -7.0%, -0.3%, -0.4%, 9%, 1, i
O=[N+]([O-])c1cccc(S(=O)(=O)Nc2nc3ccccc3nc2Nc2cccc(S(=O)(=O)N3CCCCC3)c2)c1
  x, x, 13%, 1.3%, -1.1%, -27%, 1.1, i
O=C(Nc1nc2ccc([N+](=O)[O-])cc2s1)c1ccc(S(=O)(=O)N2CCCc3ccccc32)cc1
  4.4, 62, 2.2%, -0.1%, -1.4%, -10%[20 µM], 1.1, i
Cc1ccc(Sc2c(C=O)c3ccccc3n2C)cc1
  2.4, 45, -2.0%, 0.6%, 1.1%, -9%, 1, i
Cc1sc(NC(=O)C2CCCCC2C(=O)O)c(C(N)=O)c1-c1ccc(C(C)C)cc1 (centres undefined)
  0.4, 66, -1.5%, 0.3%, -1.6%, -10%, 1, i
CC1CC(C)CN(C(=O)/C=C/c2ccc([N+](=O)[O-])s2)C1 (centres undefined)
  x, x, 0.5%, -0.3%, x, -2%, 1, i
COC(=O)c1ccc2c(c1)C(C)(C)C(/C=C/c1ccc(O)cc1)=[N+]2C
  46*, 72*, -5.6%, 31%, -0.7%, 7%, 0.5, i
CCS(=O)(=O)c1ncc(Cl)c(C(=O)Nc2ccc(S(=O)(=O)N(C)c3ccccc3)cc2)n1
  -0.1, 52, -6.8%, -0.1%, x, 6.6µM*, x, x
Cc1ccc(S(=O)(=O)Nc2ccccc2C(=O)Nc2nc(-c3ccc(F)cc3)cs2)cc1
  7.5, 75, 13%, 1.2%, 2.3%, x, 0.8, i
CN(C)S(=O)(=O)c1ccc(-c2csc(N/N=C/c3ccco3)n2)cc1
  71*, 53*, 3.0%, -0.2%, x, 2%, x, x
O=C(Nc1ccccn1)C1CCN(c2ncnc3c2nc2n3CCCCC2)CC1
  0.7, 57, 5.2%, -0.1%, x, -15%, x, x
COc1ccc(C(=O)c2ccccc2)c2c(O)ccc(C(=O)c3ccccc3)c12
  3.8, 39, 2.8%, -0.1%, 0.0%, -27%, 1, i
CN(c1ccccc1)S(=O)(=O)c1ccc(C(=O)Nc2nnc(-c3ccc(F)cc3)o2)cc1
  0.3, 53, -5.0%, -0.1%, -0.8%, 8%, 1.2, i
Cc1ccc(-c2nn(-c3ccccc3)cc2/C=N/NC(=O)c2ccc(Br)o2)cc1
  3.4, 63, 18%, -0.1%, 12%, 6%, 1, i
CC(=O)NC(=C(Cl)Cl)S(=O)(=O)c1ccccc1
  3.8, 49, -3.0%, -0.5%, x, 14%, 0.9, i
CCCc1nc(SCC(=O)Nc2nnc(SCC)s2)c2c(=O)n(C)c(=O)n(C)c2n1
  6.9, 60, 2.8%, -0.1%, 0.0%, -21%, 1, i
CCCCCCCCCCn1ccc(=N)cc1
  2.4, 57, -2.3%, -0.3%, x, 6%, x, x
COc1ccc(C2C(O)C(c3c[nH]c4ccccc34)=NN2C(=O)CCl)cc1 (centres undefined)
  11, 50, -2.5%, 0.4%, x, -11%, x, x
O=[N+]([O-])c1ccc(O)c(/C=N\N=C2c3ccccc3-c3ccccc32)c1
  27, 61, 2.6%, 0.7%, -2.2%, 9%, 0.9, i
COc1cc(OC)nc(-n2ncc(Br)c(Br)c2=O)n1
  x, x, 0.9%, -0.5%, 4.4%, 36%, 1.1, i
CCCCNC(=O)c1sc(=S)n2c1[nH]c(=O)c1ccccc12
  6.5, 72, -1.5%, -0.1%, 0.1%, -20%, 0.9, i
CC1(C)CC(N2CCN(C(c3ccccc3)c3ccccc3)CC2)=CC(=[N+]2CCCCC2)C1
  21, 71, 4.3%, -0.1%, x, 18%, x, i
COc1ccc(NC(=O)/C(Cl)=C(/Cl)S(=O)(=O)Cc2ccc(C)cc2)cn1
  x, x, -4.1%, -0.1%, -1.3%, 48%, 1.2, i
CCCCn1c(SCC(=O)Nc2nnc(CC)s2)nc2c1c(=O)n(C)c(=O)n2C
  2.0, 83, 5.2%, 0.1%, 2.8%, -9%, 1.2, i
Cc1ccc(SCc2nc3ccccc3n2CC(=O)Nc2ccc(Cl)cc2)cc1
  11, 69, x, -0.1%, -1.2%, x, 1.2, i
CCOC(=O)c1csc(Nc2nc3ccc(F)cc3s2)n1
  6.3, 78, 4.8%, 0.3%, -2.1%, 60%, 1.1, x
c1csc(C2=Nn3c(nnc3-c3ccncc3)SC2)c1
  -0.2, 40, 9.0%, -0.1%, 0.0%, 11%, 1, i
CC(=O)c1cccc(NC(=O)CSCc2ccccc2)c1
  0.3, 78, 4.4%, 0.3%, 0.9%, -10%, 1.1, i
Nc1nn2c(-c3ccccc3)cc(=O)[nH]c2c1N=Nc1ccc(Br)cc1
  x, x, -7.9%, -0.1%, 7.3%, 25%[20 µM], 0.8, i
N#C/C(=C(/O)COC(=O)COc1cccc(Br)c1)c1nc2ccccc2[nH]1
  1.0, 66, 0.3%, 0.0%, x, -14%, x, i
O=C(N/N=C/c1ccc([N+](=O)[O-])s1)c1cccc(Br)c1
  0.4, 81, -0.7%, 0.4%, 0.7%, -37%, 1, i
Cc1csc2ncnc(N3CCN(S(=O)(=O)c4cccc(C(F)(F)F)c4)CC3)c12
  5.2, 51, -3.3%, -0.1%, x, 15%, x, x
COC(=O)c1cc(NC(=O)N2c3ccccc3Sc3ccccc32)cc(C(=O)OC)c1
  1.0, 58, 1.3%, 0.3%, 0.3%, -3%, 1, i
Cc1nn(-c2ccccc2)c2c1C(=O)N(Cc1ccccc1)C(=O)C(C)(C)C2
  1.8, 48, 0.7%, -0.1%, 4.0%, -16%, 1.1, i
Cc1ccc(-c2csc(NC(=O)c3ccc4c(=O)n5c(nc4c3)CCCCC5)n2)cc1
  2.6, 36, -3.3%, 0.3%, 0.7%, -10%, 1.1, i
CC1=C(C(=O)OCc2ccc3c(c2)OCO3)C(c2ccccc2)NC(=O)N1 (centres undefined)
  -0.2, 47, 3.9%, -0.2%, 0.0%, -1%, 1, i
COc1ccc(C(=O)N/N=C(\C)c2ccccn2)cc1OC
  1.6, 59, -8.4%, -0.1%, x, 95%*, x, x
Cc1ccc(C)c(OCC(=O)Nc2nc3ccc([N+](=O)[O-])cc3s2)c1C
  -1.4, 98, 3.4%, -1.8%, -0.9%, -82%, 1, i
Cc1nn(C(C)(C)C)c(C)c1/C=N/OC(=O)Nc1ccc(Cl)cc1
  5.5, 55, -2.8%, 0.8%, x, -6%, x, i
COc1ccc(CC(=O)Nc2cccc(-c3nnc(-c4ccco4)o3)c2)cc1
  -0.2, 78, -0.1%, -0.2%, 3.4%, 5%, 1, x
Cc1cc(C)c2cc(CN(Cc3nnnn3Cc3ccc(F)cc3)C3CCCC3)c(=O)[nH]c2c1
  12, 66, 5.2%, 0.3%, -0.2%, -33%, 1.1, i
CC(=O)c1ccc(N2CCN(S(=O)(=O)c3ccc4c(c3)CC(C)N4C(C)=O)CC2)cc1 (centres undefined)
  1.2, 58, -3.2%, -0.1%, x, 4%, x, x
O=C(Nc1nnc(-c2ccc3c(c2)CCCC3)o1)c1ccc(Cl)cc1Cl
  0.3, 61, -9.3%, 0.2%, x, 19%, 1.4, i
Cc1ccc(S(=O)(=O)n2c(N)nc3ccccc32)cc1
  3.8, 46, 2.3%, 0.6%, x, -5%[20 µM], x, x
Cc1ccc(-n2c(C)c([N+](=O)[O-])c3ccc(O)c(CN(C)C)c32)cc1
  0.4, 84, -6.3%, -0.1%, 6.8%, -22%, 1, i
Cc1ccc(S(=O)(=O)Nc2nc3ccccc3nc2Nc2cccc(S(=O)(=O)N3CCCC3)c2)cc1
  26, 76, 15%, 1.2%, -0.5%, -499%[20 µM], 1.1, i
Cc1ccccc1CS(=O)(=O)c1ncc(Cl)c(C(=O)Nc2ccc(F)cc2)n1
  -1.1, 67, 5.4%, 0.2%, x, 4%, x, x
Cc1ccc(C(=O)NC(C#N)=C(Cl)Cl)cc1
  1.9, 80, x, -0.1%, -4.7%, -59%[20 µM], 1, i
